From PubChem BioAssay
Six1-Eya2 inh: qHTS Assay for Inhibitors of the Six1/Eya2 Interaction. AlphaScreen GST-Six1/His-Eya2 binding, biochemical; stronger effect = lower value; control for the full effect not named in the record. hit rate 0.56% among 360,000. activity change, % (no concentration beside the values). Homeobox protein SIX1 (Homo sapiens) + Protein phosphatase EYA2 (Homo sapiens), …; in the data active = activity change below about -65%; inconclusive = about -30% to -65%; inactive = above about -30%; further: on the % scale 0 is the no-effect control and ±100 the full control effect; compound concentration not given in the record
Target sequence (O00167 whole entry, looked up): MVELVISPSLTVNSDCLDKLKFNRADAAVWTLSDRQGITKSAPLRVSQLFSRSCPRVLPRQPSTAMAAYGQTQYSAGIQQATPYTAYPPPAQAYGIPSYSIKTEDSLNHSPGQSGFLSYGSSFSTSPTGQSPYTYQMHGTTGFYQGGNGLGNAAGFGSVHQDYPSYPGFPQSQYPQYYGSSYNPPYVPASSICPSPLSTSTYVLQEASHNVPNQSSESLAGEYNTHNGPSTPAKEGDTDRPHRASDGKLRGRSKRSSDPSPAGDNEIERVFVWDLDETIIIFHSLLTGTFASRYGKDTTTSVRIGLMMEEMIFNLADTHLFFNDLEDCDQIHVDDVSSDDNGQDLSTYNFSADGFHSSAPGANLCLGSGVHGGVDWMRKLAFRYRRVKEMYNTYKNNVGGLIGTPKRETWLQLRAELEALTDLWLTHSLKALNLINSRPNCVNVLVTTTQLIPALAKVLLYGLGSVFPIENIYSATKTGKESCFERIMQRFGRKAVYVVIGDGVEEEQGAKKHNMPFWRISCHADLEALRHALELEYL
Target sequence (Q15475 whole entry, looked up): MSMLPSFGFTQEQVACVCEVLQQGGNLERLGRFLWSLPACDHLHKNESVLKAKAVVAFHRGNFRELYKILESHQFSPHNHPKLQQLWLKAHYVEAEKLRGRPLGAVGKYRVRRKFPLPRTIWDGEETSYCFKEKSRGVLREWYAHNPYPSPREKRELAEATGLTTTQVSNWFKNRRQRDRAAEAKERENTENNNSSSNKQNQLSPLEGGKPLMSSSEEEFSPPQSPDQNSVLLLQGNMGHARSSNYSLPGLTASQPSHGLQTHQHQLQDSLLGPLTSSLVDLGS
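AlphaScreen luminescence read after one hour at 37 °C in darkness. Pin-transferred compounds met GST-Six1 and His-Eya2 protein (5X stock 250 nM/500 nM) plus glutathione donor and Ni-chelate acceptor beads (5X, 50 ug/mL).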
D2 ag: Beta-Arrestin HTS for Positive Allosteric Modulators of the Human D2 Dopamine Receptor: Agonists; DiscoveRx PathHunter D2 beta-arrestin, luminescence, 90 min; 100% = 57 uM dopamine signal; activation, % (test concentration not listed); hit rate 0.084% among 360,000; in the data active = activation above about 40%; inconclusive = about 15% to 40%; inactive = below about 15%; further: compound concentration not given in the record; the text of the record calls up to 30% inactive
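DiscoveRx PathHunter D2 beta-arrestin cells (2,100/well) attached overnight, then compound-stimulated 90 min at 37 C in HBSS/10 mM HEPES/0.1% Tween-20 buffer; beta-galactosidase complementation read by luminescence after 1 h at ambient temperature. Dopamine 57 uM final (EC100) as control.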
PINK1 expr mod: A Quantitative High throughput Screen to Identify Chemical Modulators of PINK1 Expression; Potency, µM (top dose mostly 76.6 µM), without a hit: at the top dose activation (PINK1 increase), usual class: activators; PINK1 immunofluorescence, high-content cytometry, 24 h; hit rate 0.2% among 410,000; AID 624263, 2012; active = well fitted activation curve with a large enough effect; inconclusive = small, poorly fitted or top-dose-only effect; inactive = flat fitted curve, though single readings scatter; cell line not stated here;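 further: potency means the concentration at half of the fitted maximal effect; % of control where 0% means no effect; nearly all actives have a fitted effect of over 65% in size; a mitochondrial uncoupler was the plate control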
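A stable cell line was treated with compounds at 5 concentrations for 24 hours, with CCCP as control. PINK1 levels and mitochondrial localization were measured by immunofluorescence with mitochondrial, cell and nuclear markers after fixation, read by laser-scanning cytometry.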
TRPML1 inh: qHTS for Inhibitors of the Human Mucolipin Transient Receptor Potential 1 (TRPML1). hit rate 0.02% among 390,000. Mucolipin-1 (Homo sapiens), Q9GZU1. AID 624415, 2012. activity change, negative = inhibition, % (concentration not given with the values). TRPML1-inducible cells, Ca2+ dye fluorescence, FDSS; stronger effect = lower value; inhibition of EC80 agonist-evoked calcium signal; in the data active means activity change below about -50%; inconclusive means about -30% to -50%; inactive means above about -30%;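 further: stimulus is agonist 54-4 at its EC80 concentration; on the % scale 0 is the no-effect control and ±100 the full control effect; compound concentration not given in the record; the text of the record puts the active cut at -80%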
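Tet-induced TRPML1-DL cells loaded with Ca8 no-wash calcium dye were read kinetically on FDSS. Compound addition was followed by EC80 agonist 54-4 (4 uM final); inhibition was read over 110 s.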
TRPML1 ag: qHTS for Agonists of the Human Mucolipin Transient Receptor Potential 1 (TRPML1); Mucolipin-1 (Homo sapiens), Q9GZU1; TRPML1-expressing cells, Ca2+ dye fluorescence, FDSS; host cell line not named in the record; reference of the full effect not given here; activation, % (test concentration not listed); hit rate 0.12% among 410,000; in the data active = activation above about 50%; inconclusive = about 30% to 50%; inactive = below about 30%; further: 0% is about no effect; the text of the record puts the active cut at 80%
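Agonist activity was taken from a 110 s kinetic Ca2+ dye read on the FDSS after pinning compounds onto TRPML1-DL cells. The cells were seeded at 1,500/well with Tet inducer, incubated about 16 h, then dye-loaded at room temperature.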
D2 PAM: Beta-Arrestin HTS for Positive Allosteric Modulators of the Human D2 Dopamine Receptor: Potentiators; DiscoveRx D2 beta-arrestin cells, luminescence, 90 min; 100% = 57 uM dopamine signal; D(2) dopamine receptor (Homo sapiens), P14416; hit rate 0.23% among 360,000; potentiation, % (test concentration not listed); AID 624464, 2012; active = potentiation of 50% or more; inconclusive = 30% to 50%; inactive = 30% or less;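 further: compound concentration not given in the record; tested on top of an EC20 dose of dopamine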
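PathHunter D2 cells, attached overnight at 37 deg C, received compound in DMSO plus dopamine at EC20 (50 nM final) for 90 min at 37 deg C. Beta-arrestin recruitment was read as luminescence after 1 h with detection reagent at ambient temperature.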
The depositor's hits bear a star; ? = inconclusive; nt = no result given; & = joins results of further samples; [ ] = remark or other dose.

Structure | Six1-Eya2 inh | D2 ag | PINK1 expr mod | TRPML1 inh | TRPML1 ag | D2 PAM
CC(C)(C)NC(=O)[C@H]1CC[C@H]2[C@@H]3CC[C@H]4NC(=O)C=C[C@]4(C)[C@H]3CC[C@]12C | -11 | -7.7 | 0.5% | -1 | -0.6 | 4
CCN(C(=O)C1CCCN(S(=O)(=O)c2c(C)noc2/C=C/N(C)C)C1)c1cccc(C)c1 (configuration not stated) | nt | nt | 0.6% | -16 | 0.5 | nt
COc1ccc(C2C(C(=O)Nc3ccc(C)cc3C)=C(C)Nc3nc4ccccc4n32)c(OC)c1 (configuration not stated) | nt | nt | 0.2% | -3 | -0.5 | nt
COCCCNC(=O)c1ccc2nc(CCc3ccccc3)oc2c1 | nt | nt | -1.0% | 17 | 1.9 | nt
COc1ccc(C=NNc2nc3c([nH]2)c(=O)n(C)c(=O)n3C)cc1 | 0 | 4.9 | 0.6% | -11 | 0.0 | 9
Cc1cc(NC(=O)C(C)Oc2ccccc2)no1 (configuration not stated) | 10 | -3.8 | -2.3% | -3 | 0.3 | -4
CC1CCN(CC2C(=O)O[C@@H]3C[C@@]4(C)CCC[C@H](C)C4=C[C@H]23)CC(C)(C)C1 (some centres not stated) | 10 | -4.8 | -0.9% | 13 | 1.5 | 1
O=C(CN1C(=O)c2cccc3cccc(c23)C1=O)NCCN1CCOCC1 | 1 | -3.0 | 2.7% | -3 | -0.2 | -3
CCCN1CC=C2C(C#N)=C(N)C(C#N)(C#N)C(c3cccc(OC)c3OC)C2C1 (configuration not stated) | -14 | -3.0 | 10µM* | 0 | 0.8 | -25
Cc1ccccc1Nc1nc(N)nc(CN(C)Cc2ccccc2Cl)n1 | -17 | 3.3 | 1.5% | -24 | 0.9 | -4
N#Cc1cc2c(nc1SCC(=O)N1CCOCC1)CCCCC2 | -1 | -3.2 | -2.1%[38.3 µM] | -3 | -0.3 | -7
COc1ccc(/C=N/NC(=O)C(O)(c2ccccc2)c2ccccc2)cc1OC | 5 | 0.7 | -1.7% | 34 | 1.6 | -5
O=C(c1ccccn1)C1CCCN(Cc2cn[nH]c2-c2cc3ccccc3o2)C1 (configuration not stated) | 3 | -0.6 | 1.3% | 22 | 0.3 | -14
CCOc1cc(/C=C2/C(=N)N3C(=NC2=O)SN=C3S(C)(=O)=O)ccc1OC(=O)c1ccco1 | 2 | 1.3 | -0.2% | 15 | 0.7 | -13
Cc1cc(C)c2c(N)c(C(=O)Nc3ccc(C)c(C)c3)sc2n1 | 2 | 2.5 | 12% | 10 | 0.1 | -4
CC(C)(C)c1ccc(C(=O)N/C(=C\c2cccs2)C(=O)N2CCOCC2)cc1 | 0 | 1.5 | 5.9% | 5 | 0.4 | -2
C#CCN(C[C@H]1[C@H](OC(=O)Nc2cccs2)[C@H](OC(=O)Nc2cccs2)C[C@H]2C(=O)N(c3ccccc3)C(=O)[C@@H]12)S(=O)(=O)c1ccc(C)cc1 | -8 | -2.0 | 0.6% | nt | nt | nt
O=C(O)CN1C(=O)/C(=C2\C(=O)N(Cc3ccccc3Cl)c3ccccc32)SC1=S | 25 | 3.5 | -1.7% | 43 | 0.0 | 8
CCn1cc(Br)c(C(=O)Nc2ccccc2C(=O)OC)n1 | 4 | 2.3 | 0.3% | -11 | 0.8 | 5
CC(C)C(C(=O)O)N1CCS(=O)(=O)CC1 (configuration not stated) | 2 | -1.6 | 0.6% | 36 | -0.3 | -4
O=C(NCc1nnc(SCC(=O)N2CCc3ccccc32)o1)c1ccco1 | 4 | -2.1 | -0.5% | -19 | 0.7 | -2
COC(=O)c1c(C)oc2ccc(N(C(=O)Oc3ccccc3)S(=O)(=O)c3ccc(Cl)c([N+](=O)[O-])c3)cc12 | -13 | 0.1 | -2.2% | -7 | -0.8 | 11
Cc1ccc(N2CCN(C(=O)c3cc(-c4ccc(F)cc4)[nH]c3C)CC2C)cc1 (configuration not stated) | -29 | -2.8 | ? | 9 | -1.3 | -11
COc1ccccc1C1CN=NC12CCCc1ccccc1C2=O (configuration not stated) | 15 | 2.5 | -1.0% | 26 | 2.9 | 17
CC(C)c1cccc(C2=CC(=O)C[C@H](c3ccc4c(c3)OCO4)C2)c1 | -9 | 1.6 | 1.3% | 4 | 0.2 | 10

The list goes on.
Structure | Six1-Eya2 inh | D2 ag | PINK1 expr mod | TRPML1 inh | TRPML1 ag | D2 PAM
COc1ccc(S(=O)(=O)N2CCOCC2)cc1NC(=O)Cc1cccs1 | 4 | -0.5 | 2.7% | 12 | 1.0 | -4
CCN(CC)S(=O)(=O)c1ccc(C(=O)OCC(=O)NC2CCCC2)cc1 | 3 | 4.9 | 0.6% | 3 | -1.0 | -2
CC1CN(C(=S)SCC(=O)c2ccc([N+](=O)[O-])cc2)CC(C)O1 (configuration not stated) | -26 | 14 | 0.9% | -9 | -0.2 | 10
O=C(NCc1ccccc1)C12CC3CC(CC(Br)(C3)C1)C2 | 4 | 3.1 | -0.1% | 1 | -0.3 | -3
c1ccc2[nH]c(SCc3ccc(-c4nnco4)cc3)nc2c1 | 8 | 1.0 | 0.0% | -9 | -1.0 | -3
COc1ccc(C(=O)Nc2ccc(N3CCCCCC3)cc2)cc1S(=O)(=O)N1CCOCC1 | ? | ? | 4.8% | 14 | 0.2 | -5
CC1CN(C(=O)Nc2ccc(F)cc2F)CC(C)O1 (configuration not stated) | 2 | 5.0 | -1.1% | 5 | 1.7 | 0
CCOC(=O)c1cn(CC)c2cc(N3CCCCC3)c(F)cc2c1=O | -1 | -2.6 | 0.7% | 50 | -0.4 | -2
COc1ccc(-n2c(SCC(=O)Nc3sc4c(c3C#N)CCCC4)nnc2-c2ccc(O)cc2)cc1 | 4 | -2.6 | nt | -1 | 0.7 | -18
CCC(=O)OCCn1c(Br)nc2c1c(=O)[nH]c(=O)n2C | 2 | -3.1 | 3.9% | 25 | 0.4 | -4
CCC(CO)Nc1nc2ccc(Cl)cc2c2ccccc12 (configuration not stated) | -7 | 3.0 | 7.4% | 49 | 1.2 | -29
N#Cc1ccc(OCC(=O)N2CCCC2=O)cc1 | 0 | -4.8 | 1.2% | -9 | -0.2 | -2
O=C(C[C@H]1C(=O)N(Cc2ccccc2)C[C@@H]1Cc1ccccc1)Nc1ccccc1 | -4 | -1.6 | 1.3% | 4 | 0.3&-0.3 | -10
C[C@@H]1CN([C@H](C)CO)C(=O)Cc2cc(NC(=O)Cn3cnnn3)ccc2O[C@@H]1CN(C)Cc1ccc(Cl)c(Cl)c1 | -21 | -2.4 | -0.1% | 0 | 0.4 | -7
Cc1[nH]c(-c2ccc(F)cc2)cc1C(=O)N1CCN(c2ccc(Cl)cc2)CC1 | 4 | 3.8 | ? | nt | nt | -4
Cc1ccc(S(=O)(=O)CCC(=O)OCC(=O)NCCc2ccc(F)cc2)cc1 | 1 | -5.3 | 0.1% | -5 | -0.1 | 0
COc1ccc2c(c1)c(=O)c(S(=O)(=O)c1ccccc1)cn2CC(=O)Nc1ccc2c(c1)OCO2 | nt | nt | -0.6% | 15 | -0.1 | nt
COc1ccc(C(=O)Nc2nnc(SCc3cc(=O)c4cc(C)ccc4[nH]3)s2)cc1OC | nt | nt | 2.7% | 13 | 1.1 | nt
COc1ccc(NC(=O)c2cc3c(=O)n(C)c4ccccc4c3s2)cc1Cl | nt | nt | 1.2% | -16 | 0.2 | nt
COc1cccc(NC(=O)Cn2c(=O)cc(C)c3c(C)nn(-c4cccc(F)c4)c32)c1 | nt | nt | 2.6% | -3 | 0.0 | nt
COCCNc1ccc(S(=O)(=O)N2CCCC2)cc1[N+](=O)[O-] | 2 | -1.2 | 0.7% | -5 | 0.2 | -3
Cc1c(C(=O)N2CC(C)OC(C)C2)sc2nc(-c3ccc(F)cc3)cn12 (configuration not stated) | -4 | -3.3 | 5.5% | 42 | -0.4 | -25
Cc1ccccc1-n1c(SCC(=O)c2c(N)n(C3CC3)c(=O)[nH]c2=O)nnc1N1CCOCC1 | 4 | -6.4 | -1.3% | 41 | 0.3 | -2
Cc1ccc(OCCCCNC2CCCCC2)c(C)c1 | 0 | -4.6 | 6.9% | 5 | 1.2 | -6
CCN(Cc1cccc(F)c1)C(=O)c1ccc2ccccc2n1 | 9 | -1.1 | -1.4% | -5 | 1.3 | -8

Quoted at random: 2 compounds from above.
Structure | Six1-Eya2 inh | D2 ag | PINK1 expr mod | TRPML1 inh | TRPML1 ag | D2 PAM
CCOC(=O)c1cn(CC)c2cc(N3CCCCC3)c(F)cc2c1=O | -1 | -2.6 | 0.7% | 50 | -0.4 | -2
CCC(CO)Nc1nc2ccc(Cl)cc2c2ccccc12 (configuration not stated) | -7 | 3.0 | 7.4% | 49 | 1.2 | -29

Remaining list, next part
Structure | Six1-Eya2 inh | D2 ag | PINK1 expr mod | TRPML1 inh | TRPML1 ag | D2 PAM
O=C(Cn1c(=O)n(Cc2ccccc2)c(=O)c2cc(Cl)ccc21)NCC1CCCO1 (configuration not stated) | 0 | -6.2 | 5.1% | -9 | 0.3 | -9
CCc1cccc(CC)c1NC(=O)NC1CCCCC1 | 9 | -4.9 | 0.3% | 0 | 0.6 | -6
CC(=O)Oc1ccc(/C=C/c2nc3ccccc3c(=O)o2)cc1 | -20 | -6.2 | 0.3% | -6 | 2.1 | -6
CCn1c2ccccc2c2cc(NC(=O)CSc3nnc(-c4ccccc4OC)n3N)ccc21 | -5 | -1.7 | 9.8%[38.3 µM] | 22 | 1.9 | -5
COc1cc(/C=C(\NC(C)=O)C(=O)Nc2ccccc2C)ccc1OC(C)=O | 11 | -1.4 | ? | -12 | 0.1 | 1
O=C(CSc1nc2ccccc2c(=O)n1NC(=O)Cc1ccccc1)NCc1ccccc1Cl | -7 | -3.6 | 1.0% | -12 | 0.9 | 6
COc1ccc(Oc2cc(C)nc(Cl)n2)nn1 | 5 | -5.9 | 0.6% | 18 | 1.1 | -5
CC(=O)N(Cc1cccnc1)c1nc2c(C)c(C)ccc2s1 | nt | nt | -1.9% | 18 | 0.8 | nt
COc1ccc(O)c(CNc2ccccc2F)c1 | -13 | 1.2 | 0.9% | 12 | 2.3 | -9
CCCCOc1ccc(CNC(=O)Cc2ccc(NC(=O)N3CCSc4ncccc43)cc2)cc1 | nt | nt | -0.7% | 5 | 3.3 | nt
